Compound activity from PubChem BioAssay.
Mtb growth = M. tuberculosis H37Rv growth inhibitors, H37Rv strain (AID 1626). M. tuberculosis H37Rv growth inhibition; higher % means a stronger effect. one-dose inhibition, % at 10 µM; IC50 in µM for titrated hits. hit rate 0.95% among 220,000;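 active = confirmed in a dose series; inconclusive = inhibition above 80% but not taken into the dose series; inactive = below 80% or under 30% at every dose of the series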;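 note: bacteria incubated seven days before Alamar blue readout; 0% = bacteria only wells and 100% = bacteria with antibiotic wells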
YopH PTP inh = inhibitors of Yersinia enterocolitica YopH tyrosine phosphatase. fluorescence Ex485/Em525. inhibition, %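 (about 10 µM by stock and volumes)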. hit rate 0.16% among 140,000. AID 898;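 active = inhibition of 50% or more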;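 note: controls were vehicle for no effect and minimum signal wells for full effect; inactives centre near -20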
Arbovirus anti = antivirals against arbovirus infection. arbovirus infection cell-based antiviral screen. inhibition, % at 10 µM. hit rate 0.37% among 200,000. AID 1251;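 active = inhibition from about 30%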;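 note: bluetongue infection of BSR cells; cell survival read as ATP light after 72 h; 0% = infected wells without compound and 100% = uninfected wells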
RecA intein inh = blocks M. tuberculosis RecA intein splicing; inhibition, %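 (about 9 µM by stock and volumes)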; cell-free RecA intein splicing, fluorescence; hit rate 0.75% among 290,000; AID 2221; P9WHJ3; in the data active = inhibition above about 30%; inconclusive = no clear call, values can overlap the other calls;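 note: 0% = vehicle wells and 100% = reference inhibitor control wells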
Target sequence (P9WHJ3 whole entry, looked up): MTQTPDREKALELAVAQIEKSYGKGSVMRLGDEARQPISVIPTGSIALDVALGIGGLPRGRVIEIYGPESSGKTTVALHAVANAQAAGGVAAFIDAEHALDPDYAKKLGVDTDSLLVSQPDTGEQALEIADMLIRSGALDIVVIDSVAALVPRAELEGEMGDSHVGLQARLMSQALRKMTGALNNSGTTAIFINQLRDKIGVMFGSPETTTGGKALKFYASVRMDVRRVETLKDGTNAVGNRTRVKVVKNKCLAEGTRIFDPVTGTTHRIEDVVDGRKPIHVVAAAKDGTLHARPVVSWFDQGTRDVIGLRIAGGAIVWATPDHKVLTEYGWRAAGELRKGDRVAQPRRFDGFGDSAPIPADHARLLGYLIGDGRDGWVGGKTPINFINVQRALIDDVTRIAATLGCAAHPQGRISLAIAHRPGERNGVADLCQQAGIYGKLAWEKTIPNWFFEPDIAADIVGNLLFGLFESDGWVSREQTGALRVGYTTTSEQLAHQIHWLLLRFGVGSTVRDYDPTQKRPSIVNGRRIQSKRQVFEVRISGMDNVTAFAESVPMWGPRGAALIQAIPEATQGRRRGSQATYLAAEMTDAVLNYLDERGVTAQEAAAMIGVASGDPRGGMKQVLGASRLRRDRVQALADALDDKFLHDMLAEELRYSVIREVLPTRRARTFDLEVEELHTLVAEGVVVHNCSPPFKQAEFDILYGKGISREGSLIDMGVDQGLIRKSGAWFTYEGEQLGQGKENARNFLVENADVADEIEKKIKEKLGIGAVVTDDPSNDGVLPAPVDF
Mtb bLac sens = beta-lactam sensitization of Mtb H37Rv | M. tuberculosis H37Rv growth with meropenem, percent inhibition; hits of this screen are not shown here | hit rate 0.27% among 330,000 | inhibition, % at 25 µM;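 active = about 74% or more and at least 40 points above the plate without the antibiotic, then above 30% in a dose series; inconclusive = first-round hits that could not be retested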;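 note: growth measured after seven days incubation then overnight dye step; 0% = bacteria only wells and 100% = bacteria with antibiotic; twin plates without the antibiotic show which effects depend on it; some results filed as inactive read as strong as hits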
Arbovirus anti repeat = further read-out of Arbovirus anti, marked with its call; inhibition, %; measured here: 10K subset replicate screen; many hits read low in the repeat;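 first of two repeat runs on a subset; 0% = infected and 100% = uninfected wells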
* hit, by the source's call; ? = inconclusive; · = not tested or not shown.

SMILES	Mtb growth	YopH PTP inh	Arbovirus anti	RecA intein inh	Mtb bLac sens	others
Cc1c(CCOC(=O)c2cc([N+](=O)[O-])cc([N+](=O)[O-])c2)sc[n+]1CCCCS(=O)(=O)[O-]	4%	·	10	-2.7	4
Cc1ccccc1/C=C1\CCCc2ccccc2C1=O	6%	5	4	15	5
CCOc1cc(NC(=S)NCc2ccccc2)c(OCC)cc1NC(=O)C(C)C	·	·	·	-2.4	-19
Cc1ccc(/C=C/C(=O)Nc2sc3c(c2C#N)CCCC3)o1	4%	-5	-5	-0.4	-1
O=C1CCCCN1CCCC(=O)N1CCCC(Nc2ccc(F)cc2)C1 (centres undefined)	·	·	·	-0.8	-3
CCN(C(=O)COC(=O)c1ccc(Cl)cc1N)C1CCCCC1	4%	·	19	1.3	0
CCOC(=O)N1CCC(NC(=O)c2ccc3c(c2)ncn3C2CCCC2)CC1	·	-34	-4	-0.2	0
O=C(NCc1nnc(SCC(=O)N2CCCC2)o1)c1ccc(F)cc1	·	·	·	-1.1	?
O=C(CCN1C(=O)C2C3C=CC(C3)C2C1=O)Nc1ccccc1 (centres undefined)	-4%	·	5	-1.7	0
O=C(CNCc1cccs1)Nc1ccc(OC(F)(F)F)cc1	·	·	·	-4.0	7
O=C1CC(N2CCC(c3nc4ccccc4o3)CC2)C(=O)N1 (centres undefined)	-3%	·	-3	-2.4	-6
COc1ccc(Br)cc1C(=O)Nc1cc(C)cc(C)c1	1%	24	-1	-1.4	54
CN1CCN(C(=O)c2ccccc2NC(=O)c2sc3ccccc3c2Cl)CC1	·	·	·	-0.9	3
CC(=O)c1nn(-c2cccc(C(F)(F)F)c2)c(=O)[nH]c1=O	·	·	·	-1.9	2
C=C(C)Cn1c(SCC(=O)O)nnc1-c1ccccc1	2%	-18	5	11	-4
COc1cc(C2=NOC(C(=O)Nc3ccc(C)cc3)C2)cc(OC)c1OC (centres undefined)	-3%	-39	-6	-3.9	0
CCS(=O)(=O)NCc1cn2ccsc2n1	1%	-25	6	-2.2	-1
Cc1cccc(N2CC(C(=O)Nc3ccc4c(c3)OCO4)CC2=O)c1C (centres undefined)	1%	3	-10	-0.3	-4
Cc1nn(-c2ccccc2)c2sc(C(=O)OCc3nnc(-c4ccccc4)o3)cc12	-13%	-13	-9	1.1	1
Cc1cccc(C)c1NC(=O)C(c1ccccc1)N1CC(=O)Nc2ccccc21 (centres undefined)	·	-4	-2	1.6	-9
CS(=O)(=O)N(CC(=O)N1CCOCC1)c1cccc(F)c1	·	·	·	-0.7	3
Cc1cc(C)n2nc(N)c(N=Nc3cccc(Cl)c3)c2n1	80%	-23	2	5.1	88
Cc1ccc(O)c(CNc2cnc3ccccc3c2)c1	·	·	·	1.3	96
CCOC(=O)c1sc(-c2ccccc2)nc1C	2%	·	1	-1.6	-1
O=C(Nc1ccc(SC(F)F)cc1)c1ccccc1F	2%	·	8	1.6	3

The last 3 compounds of the section before lead into the next.
SMILES	Mtb growth	YopH PTP inh	Arbovirus anti	RecA intein inh	Mtb bLac sens	others
Cc1ccc(O)c(CNc2cnc3ccccc3c2)c1	·	·	·	1.3	96
CCOC(=O)c1sc(-c2ccccc2)nc1C	2%	·	1	-1.6	-1
O=C(Nc1ccc(SC(F)F)cc1)c1ccccc1F	2%	·	8	1.6	3
C/C(=N/NC(=O)c1cccs1)c1ccc(N2CCOCC2)cc1	-3%	-26	-3	-0.2	-1
Cc1ccc(OCCOC(=O)Nc2ccccc2)cc1	-14%	-22	5	-2.4	3
CC(C)COc1ccc(C(=O)Nc2ccc(SC(F)F)cc2)cc1	27%	-9	-2	1.3	19
Cc1cc(C)c2[nH]c(=O)c(CN(CC3CCCO3)C(=S)Nc3ccccc3)cc2c1 (centres undefined)	2%	-13	-7	-7.7	7
OCC[C@@H]1C[C@@H](O)[C@H](O)[C@]2(CCCc3ccccc3O2)O1	·	·	·	1.8	-6
COCCn1nnnc1C(C(C)C)N1CCC(Cc2ccccc2)CC1 (centres undefined)	77%	-23	-5	3.2	10
COc1c2ccc(C(=O)NCc3cc(C(F)(F)F)cc(C(F)(F)F)c3)cc2nn1C	5%	-24	-35	-5.9	-5
COC(=O)c1[nH]c2ccc(C)cc2c1NC(=O)c1ccccc1[N+](=O)[O-]	-1%	-25	6	0.6	3
CC(C)CCNC(=O)Cc1c(C(=O)O)[nH]c2ccc(Cl)cc12	4%	-28	-4	2.0	5
CCOC(=O)N1CCN(C(=O)CCc2ccccc2)CC1	·	·	·	-0.9	-11
CCOC(=O)CN(C(=O)Cn1nnc2ccccc21)C(C(=O)NCCOC)c1ccccc1 (centres undefined)	-1%	20	-3	2.4	1
COc1ccc(C(=O)NNC(=O)c2ccc(C)cc2)cc1S(=O)(=O)N1CCCC1	4%	·	6	0.6	20
CCOc1cc(CNCCSc2nnnn2C)cc(Br)c1OCc1ccccc1F	10%	-26	-18	10.0	50
O=C(Cn1nc(-c2ccccc2)ccc1=O)N1CCOCC1	-10%	-7	2	-1.9	-6	Arbovirus anti repeat=4
COc1ccccc1C1=Nn2c(nnc2C2CCCCC2)SC1	78%	-43	-2	·	100
CS(=O)(=O)N1CCC(Oc2cccc(C(=O)NCCCC3CCCC3)c2)CC1	·	·	·	13	2
CCN(CC)CCCNC(=O)c1ccc(C)c(NC(=O)C2=C(C)OCCS2)c1	·	·	·	0.3	-1
C#CCOCCOCCOCCNc1nc(N2CCN(C(=O)[C@H](CCCCN)n3cc([C@@H](N)CO)nn3)CC2)nc(N2CCN(C(=O)[C@H](Cc3cc4ccccc4[nH]3)n3cc([C@@H](N)Cc4ccc(O)cc4)nn3)CC2)n1	·	·	0	-0.6	79
COc1ccccc1N1C(=O)CSC1=S	·	·	·	4.5	-21
Cc1ccc(CNc2cnn(C34CC5CC(CC(C5)C3)C4)c(=O)c2Cl)cc1	-3%	-30	2	-3.1	8
Cc1cccn2c(=O)nc(SCC(=O)Nc3ccc4c(c3)OCCO4)nc12	·	·	·	-0.5	-14
Nc1cc2c(cc1C(=O)c1ccc(Cl)cc1)OCCO2	8%	-18	-18	4.6	9
Cc1cccn2cc(CCNC(=O)Cc3cccs3)nc12	5%	·	·	0.3	-3
CCOC(=O)c1ccc(N2C(=O)CC(Sc3nnc(C)s3)C2=O)cc1 (centres undefined)	5%	-6	0	10.0	2
Cc1ccc(C(=O)NC(Cc2c[nH]c3ccccc23)C(=O)O)o1 (centres undefined)	2%	18	8	18	2	Arbovirus anti repeat=9
Next part
SMILES	Mtb growth	YopH PTP inh	Arbovirus anti	RecA intein inh	Mtb bLac sens	others
COc1ccccc1-c1noc(-c2cccnc2)n1	0%	17	-5	1.3	?
Brc1cnc2nc(SC/C=C/c3ccccc3)[nH]c2c1	9%	·	·	-6.3	0
O=C(O)CN(c1cccc(C(F)(F)F)c1)S(=O)(=O)c1ccccc1	-9%	·	1	-0.9	-7
COc1ccc(NC(=O)NC(C)c2ccc3c(c2)OCO3)cc1OC (centres undefined)	·	·	·	3.1	-5
COc1ccccc1CNC(=O)C1CCN(S(=O)(=O)c2ccc(N3CCCC3=O)cc2)CC1	·	·	·	-2.9	9
CCOc1ccccc1C(=O)NCCCn1ccnc1	-9%	9	3	4.3	-2
O=c1c2cnn(-c3ccc(F)cc3)c2ncn1Cc1ccccn1	-11%	-21	0	-1.7	·
CC1(C(=O)N(CC(=O)NC2CCCC2)Cc2ccco2)CC(=O)N=C2C=CC=CN21 (centres undefined)	5%	-7	2	-0.3	2
COc1cc2c(cc1OC)CN(Cc1cc(=O)oc3cc(C)c(Cl)cc13)CC2	2%	-26	0	-1.9	-5
COc1cccc(C2C(=O)N(C3CCCCC3)CC(=O)N2Cc2ccc(F)cc2)c1 (centres undefined)	-3%	1	1	0.8	-7
COc1cc(/C=N/NC(=O)c2cccc([N+](=O)[O-])c2)cc(OC)c1O	7%	·	-5	-3.2	61
COc1ccc(C(=O)NCCc2ccccc2F)cc1OC1CCN(C(C)=O)CC1	·	·	·	-1.5	2
CCC(C)NC(=O)[C@@H]1CCCN1C(=O)C1CCN(S(=O)(=O)c2ccc(C)cc2)CC1 (some centres undefined)	·	·	·	0.0	-10
Cc1ccc(NC(=O)CN(C)C(=O)C(C)OC(=O)CNC(=O)c2ccc(Cl)c([N+](=O)[O-])c2)cc1 (centres undefined)	·	·	·	-1.6	-15
COc1ccc(C(=O)COC(=O)C(C)N2C(=O)C3C4CCC(C4)C3C2=O)cc1 (centres undefined)	·	·	·	-0.7	4
CC(=O)OCCCNc1cc(SCc2ccco2)c2nonc2c1[N+](=O)[O-]	?	69*	-38	78*	98
CCn1c(=N)n(CC(=O)c2ccc(OC)cc2)c2ccccc21	2%	-2	-3	-0.9	-7
Oc1c(C=NCc2ccncc2)sc2ccccc12	2%	-42	3	-4.4	-5
CNC(=S)NC(CC(=O)OC)c1ccc2c(c1)OCO2 (centres undefined)	-3%	·	11	-0.6	7
Cc1cc(=O)c2cc3nc(-c4cccnc4)oc3c(Br)c2o1	-1%	·	·	-2.4	-6
CCN=C(NC#N)SCc1c(F)cccc1Cl	3%	-49	5	-1.9	1
COc1ccccc1N1CCN(C/C(O)=C(\C#N)c2nc(-c3ccccc3)cs2)CC1	-9%	-17	-7	0.2	-2
N#CC(C#N)=Cc1cccnc1	-10%	·	22	0.8	-3
COc1cc(NS(=O)(=O)c2ccc(NC(=S)NC(=O)C(C)(C)C)cc2)nc(OC)n1	-5%	-41	1	4.4	·
Cc1cccc(C)c1NC(=O)CNC(=O)c1cn(-c2ccccc2)nc1-c1ccccc1	·	·	·	-0.8	?
Next part.
SMILES	Mtb growth	YopH PTP inh	Arbovirus anti	RecA intein inh	Mtb bLac sens	others
Cc1ccc(NC(=O)N2CCCC2C(=O)NCCC2=CCCCC2)cc1 (centres undefined)	-2%	-42	-2	0.3	7
Cc1ccc(C(=O)OCC(=O)NC2CCCCC2)o1	·	·	·	1.4	-6
Cc1ccc2c(c1)NC(=O)CC(c1ccccc1)=N2	-6%	11	2	-1.0	36
COc1ccc(Cn2c(C)nnc2-c2cnn(C)c2N)cc1OC	-2%	·	-4	·	-6
CCCNC(=O)c1ccc(CN2CCOCC2)cc1	0%	·	7	-1.4	-12
CC1=NOC(=O)/C1=C\c1ccc2c(c1)OCO2	10%	·	2	-3.4	4
Cc1noc(C)c1C(=O)Nc1ccc2ccccc2c1	·	·	·	1.2	-9
NC(=NC(=O)c1ccccc1)N1N=CCC1c1ccccc1 (centres undefined)	0%	·	2	1.8	40
NC(=O)c1cc2ccccc2o/c1=N\NC(=O)c1ccc(F)cc1	·	·	·	2.3	0
COc1cccc(C(=O)N(Cc2cc3cc(C)ccc3[nH]c2=O)CC2CCCO2)c1 (centres undefined)	-7%	-20	8	0.4	-7
COc1ccc(NC(=O)CN(C)C(=O)C23CC4CC(CC(C4)C2)C3)cc1	·	·	·	-0.4	-8
CCOc1ccc(S(=O)(=O)N2CCCC(C(=O)Nc3cc(C)cc(C)c3)C2)cc1 (centres undefined)	·	·	·	1.3	-4
COCC(C)n1c(-c2ccc3c(c2)NC(=O)CO3)csc1=Nc1ccc(OC(F)F)cc1 (centres undefined)	-5%	-9	5	-0.3	2
NNC(=O)c1ccc(-c2cccc([N+](=O)[O-])c2)o1	?	·	11	-1.6	66
Cn1cnnc1SCCOc1ccc(Cl)cc1	6%	·	-2	2.1	-10
CCOc1cc(C(=O)N/N=C\c2cn(CC)nc2C)cc(OCC)c1OCC	0%	-26	-6	-6.6	-1
C=CCn1c(O)c(C(CC)=Nc2ccc3c(c2)CCC3)c(=O)[nH]c1=O	18µM*	·	·	-0.8	95
CCC(C)c1ccccc1N1CC(C(=O)N(C)CC(=O)Nc2cccc(F)c2)CC1=O (centres undefined)	·	·	·	-0.2	-5
COc1cc(S(=O)(=O)Nc2cccc(C)c2)ccc1N=Cc1c(C)[nH]n(-c2ccccc2)c1=O	4%	-50	-16	0.0	-6
O=C(CN1C(=O)c2ccccc2S1(=O)=O)c1ccc(O)c(O)c1	-5%	·	·	-3.7	5

Random excerpt: 5 compounds from above, in no set order.
SMILES	Mtb growth	YopH PTP inh	Arbovirus anti	RecA intein inh	Mtb bLac sens	others
CCN=C(NC#N)SCc1c(F)cccc1Cl	3%	-49	5	-1.9	1
C#CCOCCOCCOCCNc1nc(N2CCN(C(=O)[C@H](CCCCN)n3cc([C@@H](N)CO)nn3)CC2)nc(N2CCN(C(=O)[C@H](Cc3cc4ccccc4[nH]3)n3cc([C@@H](N)Cc4ccc(O)cc4)nn3)CC2)n1	·	·	0	-0.6	79
NNC(=O)c1ccc(-c2cccc([N+](=O)[O-])c2)o1	?	·	11	-1.6	66
CS(=O)(=O)N1CCC(Oc2cccc(C(=O)NCCCC3CCCC3)c2)CC1	·	·	·	13	2
Cc1ccc(C(=O)NC(Cc2c[nH]c3ccccc23)C(=O)O)o1 (centres undefined)	2%	18	8	18	2	Arbovirus anti repeat=9

These rows are one share of the data; count on the stated rates, not on these rows.
